Calb biofilm kill: clotrimazole potentiators killing C. albicans biofilm, primary screen, 4-compound mixtures; C. albicans biofilm persisters + clotrimazole, fluorescence viability; primary screen in compound mixtures of four per well; inhibition, % at 7.6 µM; 120,000 compounds, 0.02% hits; AID 1242, 2008;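 active = inhibition above 30.3% in the primary screen of four-compound pools, then above 30% when the compound was retested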;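 also: compounds exposed to preformed 24 h biofilms for 48 h; the number belongs to the whole pool; some results filed as inactive read as strong as hits; inactives centre near 12; 0% = biofilm with clotrimazole alone and 100% = kill control; retested singly at about 60 µM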
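Probe or stimulus – Clotrimazole 50 µg/mL co-treatment · System – C. albicans biofilms · Schedule – 24 h biofilm formation, then 48 h compound exposure, 37 °C · Evaluation – percent inhibition of biofilm viability · Technique – 2-h Alamar Blue fluorescence, 535/590 nm excitation/emission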
The depositor's hits bear a star. Some of the compounds tested; count on the stated rates, not on these rows.

mol	Calb biofilm kill
Cc1nn(C(=O)CCCn2cc([N+](=O)[O-])cn2)c(C)c1Cl	10
O=S(=O)(Cc1ccccc1Cl)c1ncn[nH]1	25
COc1ccc(Cc2noc(CN(C)Cc3ccc(-n4cccn4)cc3)n2)cc1OC	20
COc1ccc(C2/C=C\CN(C(=O)Oc3ccc(C(F)(F)F)cc3)CC(=O)N2Cc2ccc(F)cc2)cc1 (stereo not drawn)	21
CCc1cc2c(=O)[nH]c(CC(N)=O)nc2s1	17
Cc1ccccc1NC(=O)c1ccc(Cl)c(NC(=O)c2cccnc2)c1	13
CCOc1cc(/C=N/NC(=O)C(N)=O)cc(Br)c1O	-16
CCC(Sc1nc2ccccc2o1)C(=O)O (stereo not drawn)	14
O=C(OCCN1CCCC1=O)c1cc(F)c(F)c(F)c1F	21
COc1ccc(-c2csc(-c3cc4ccccc4oc3=N)n2)cc1	6

Part of the list above, as labelled records.
CCc1cc2c(=O)[nH]c(CC(N)=O)nc2s1
  Calb biofilm kill: 17
Cc1ccccc1NC(=O)c1ccc(Cl)c(NC(=O)c2cccnc2)c1
  Calb biofilm kill: 13
CCOc1cc(/C=N/NC(=O)C(N)=O)cc(Br)c1O
  Calb biofilm kill: -16
CCC(Sc1nc2ccccc2o1)C(=O)O (stereo not drawn)
  Calb biofilm kill: 14

(further entries)
mol	Calb biofilm kill
Cc1ccc(S(=O)(=O)N(C)C)cc1NC(=O)CN1C(=O)NC2(CCCc3ccccc32)C1=O (stereo not drawn)	15
Cc1ccc(C)c(NC(=S)N(CCN(C)C)C(C)c2ccccn2)c1 (stereo not drawn)	6
O=C(NNC(=O)C(Cl)Cl)c1cnn(-c2ccccc2)c1C(F)(F)F	25
Cc1ccc(OCC(=O)N/N=C\c2cn(Cc3ccccc3)c3ccccc23)cc1C	11
COc1ccccc1C(=O)Nc1ccc(Oc2nnc(-c3ccc(C)cc3)c3ccccc23)cc1	14
COc1ccc(S(=O)(=O)/N=C2/NC(=O)/C(=C/c3ccco3)S2)cc1	16
Cc1ccc(SCC(=O)NCCCc2ccccc2)cc1	-10
CCc1nnc(NC(=O)CN2C(=O)CCC2=O)s1	14
CC(C)(C)C(=O)NC1CCN(S(C)(=O)=O)CC1	10
O=C(CN1C(=O)NC2NC(=O)NC21)N/N=C/c1ccccc1F (stereo not drawn)	-3
O=C(NCc1ccccc1)c1ccc(CS(=O)(=O)Cc2ccccc2F)o1	4
Cc1ccc(N(Cc2ccco2)C(=O)c2ccc(N3CCCCC3)c([N+](=O)[O-])c2)cc1	14
CCOP(=O)(OCC)c1nc(-c2cccc3ccccc23)oc1N1CCOCC1	-13
Cc1cc(C)c(NC(=O)Cn2nc(-c3ccccc3)nc2-c2ccccc2)c(C)c1	12
COc1ccc(C2c3c(ccc4ccccc34)Oc3ncn4nc(Cc5ccc(OC)c(OC)c5)nc4c32)cc1 (stereo not drawn)	14
CN(C)CCOCCOc1ccc(Cl)c2ccccc12	7
COc1ccc(N(CC(=O)Nc2cccc(N(C)S(C)(=O)=O)c2)S(=O)(=O)c2ccc(F)cc2)cc1	16
CC(=O)NC1=NN(C(C)=O)C(C)(c2cccs2)S1 (stereo not drawn)	7
COc1ccc(CNC(=O)/C(C)=C\C(=O)O)cc1	22
O=c1c2ccccc2ncn1-c1ccccc1F	10

The last 2 compounds of the part before lead into the next:
mol	Calb biofilm kill
COc1ccc(CNC(=O)/C(C)=C\C(=O)O)cc1	22
O=c1c2ccccc2ncn1-c1ccccc1F	10
COc1ccc(-c2[nH]n(-c3ccc([N+](=O)[O-])cc3)c(=O)c2C=NCC2CCCO2)cc1 (stereo not drawn)	13
CCC1=Nc2cc(C(=O)NCC3CCCO3)ccc2Sc2ccc(Cl)cc21 (stereo not drawn)	22
Cc1ccc(-n2c3c(c(=O)[nH]c2=O)C(NS(=O)(=O)c2ccc(Cl)cc2)(C(F)(F)F)C(=O)N3)cc1 (stereo not drawn)	10
Cc1cccc(OCCCn2c(=O)oc3ccccc32)c1	10
COc1ccc(NC(=O)/C(N=Nc2cc(S(=O)(=O)Nc3ccc(OC)cc3)ccc2OC)=C(\C)O)cc1	7
COc1cc(OC)c2c(-c3ccccc3)cc(=O)oc2c1C(CCN1CCCCC1)c1ccc(N(C)C)cc1 (stereo not drawn)	16
Cc1nnn(C23C[C@@H]4C[C@@H](CC(C(=O)N5CCN(c6ccccc6)CC5)(C4)C2)C3)n1	-3
O=C1CN(C(=O)CNCc2ccc(Cl)cc2)c2ccccc2N1	12
CCOC(=O)C1CCCN(C(=O)c2ccc(Cl)c(S(=O)(=O)N3CCCCCC3)c2)C1 (stereo not drawn)	12
FC(F)(F)c1cccc(Cn2cnc(NC(=S)NCCc3ccccc3)n2)c1	12
O=C(/C=C\c1ccccc1OC(=O)c1ccccc1F)c1cc2ccccc2o1	4
O=C(NNC(=S)NC(=O)c1cccnc1)c1ccc(F)cc1	16
S=C(Nc1ccccc1)N1CCOCC1	17
Cn1c(NN)nc2ccccc2c1=O	6
CC(=O)N(c1ccccc1)c1nc(C)cc(C)c1C#N	5
CNC(=S)n1cnc(N)n1	11
Cc1ccc(-c2nc(CN3CCN(c4cnccn4)CC3)c(C)o2)o1	24
Cc1cc(CNC(=O)c2cccnc2Cl)c2ccccc2n1	15
COc1ccc2c(C)cc(SCC(=O)Nc3cc(C(N)=O)cc(C(N)=O)c3)nc2c1	35
CCn1c(/C=C/c2ccccc2)nc2ccccc2c1=O	22
CCOc1cc(C(=O)NCCc2ccc(S(N)(=O)=O)cc2)cc(OCC)c1OCC	16
COc1cc(CC2COC(c3ccc(O)c(OC)c3)C2COC(C)=O)ccc1O (stereo not drawn)	17
CCN(CC)CCn1c(SCC(=O)NCc2ccccc2)nc2c(sc3ccccc32)c1=O	27
O=C(NC(=S)NCc1ccc(-c2nc3ccccc3s2)cc1)c1ccco1	7
CCOC(=O)c1c(C)n(-c2ccc(C)cc2)c2ccc(O)c(CN(C)C)c12	13
CC(C)n1c(-c2ccncc2)n[nH]c1=S	12
CCOC(=O)C1CCCN(C2CC(=O)N(c3ccc(N4C(=O)CC(N5CCCC(C(=O)OCC)C5)C4=O)cc3)C2=O)C1 (stereo not drawn)	9
CCC(C(=O)OCC(=O)Nc1ccc(OC)cc1OC)c1ccccc1 (stereo not drawn)	18
CCOc1ccc(CN2CCN(Cc3c(C)nn(CC)c3C)CC2CCO)cc1 (stereo not drawn)	30
COc1ccc(S(=O)(=O)c2ccc(OCC3CO3)cc2)cc1 (stereo not drawn)	6

More compounds.
| Molecule | Calb biofilm kill |
| --- | --- |
| Cc1c(O)c(=O)c2ccccc2n1C | 17 |
| O=C(CSc1nc2ncccc2[nH]1)c1cccc([N+](=O)[O-])c1 | 7 |
| O=C(CC1CCOCC1)Nc1ccc(Cl)c(Cl)c1 | 4 |
| COc1ccc(-c2csc(/C(C#N)=C/Nc3ccc4c(c3)OCCO4)n2)cc1 | 10 |
| CCOc1cccc(NC(=O)C2CC(=O)N(c3ccc(F)cc3)C2)c1 (stereo not drawn) | 20 |
| O=S(=O)(CCc1nc2ccccc2[nH]1)c1ccc(Br)cc1 | 11 |
| CC(=O)Nc1cccc(N(C(=O)C2COc3ccccc3O2)C(C(=O)NC2CCCCC2)c2cn(C)nc2C)c1 (stereo not drawn) | 6 |
| CCOc1ccccc1NC(=O)CSc1ccc2nnc(-c3cccnc3)n2n1 | 9 |
| CCOc1cccc(CN2CCN(CCc3ccccc3)C(CCO)C2)c1O (stereo not drawn) | 9 |
| COc1ccc(NC(=S)N2CCCC2c2ccc(OC)c(OC)c2)cc1 (stereo not drawn) | 14 |
| COc1ccccc1CNCC(=O)Nc1ccccc1-n1cccc1 | 10 |
| Cc1cc(C)n(C(=O)C(C(=O)c2ccccc2)C(C)C)n1 (stereo not drawn) | 13 |
| COc1ccc(C(=O)c2cc3cccc(OC)c3o2)cc1 | 14 |
| CS(=O)(=O)Nc1ccc(C(=O)Nc2ccc3c(c2)OCO3)cc1 | 16 |
| CCOCCCNC(=S)N1CCN(C(=O)C(=O)Nc2ccc(C(=O)OC)cc2)CC1 | 13 |
| O=C(COC(=O)c1ccc2[nH]c3c(c2c1)CCCC3)NC1CCS(=O)(=O)C1 (stereo not drawn) | 9 |
| CN(C)CCCNc1ncnc2scc(-c3ccccc3)c12 | -4 |
| Nc1nnc(CSCc2ccc(Cl)cc2Cl)s1 | 16 |
| CCOC(=O)C(NCCc1ccccc1F)(NC(=O)CC)C(F)(F)F (stereo not drawn) | 16 |
| Cc1ccc(C2=NC3(CCCC3)NC2=S)cc1 | 6 |
| CCOC(=O)N1CCN(C(=O)CSc2ccc(-c3ccccc3OC)nn2)CC1 | 9 |
| COC(=O)C(C(=O)Nc1cccc(Cl)c1C)C1CCCC1 (stereo not drawn) | -1 |
| COc1ccccc1NC(=O)Cc1nc(CCl)cs1 | 20 |
| O=[N+]([O-])c1cc(/C=N/n2cnnc2)ccc1N1CCCC1 | 19 |
| Cc1cc(-c2cc(C(=O)NCc3ccccc3)on2)nc(NCC2CC2)n1 | 11 |
| CCN(CC)CCOC(=O)c1ccc(NC(=O)c2ccc(Cl)c(S(=O)(=O)N3CCCCCC3)c2)cc1 | -2 |
| COc1ccccc1CNC(=O)c1ccccc1OCc1ccc(F)cc1 | 23 |
| Clc1cccc(/C(Cc2nc3ccccc3[nH]2)=N\Nc2ccccc2)c1 | 8 |
| O=S1(=O)CC(O)C(NCCO)C1 (stereo not drawn) | 18 |
| COC(=O)c1ccc(NC(=O)Nc2ccccc2C)cc1 | 20 |
| Cc1ccc(-n2c3nc(=O)[nH]c(=O)c-3cc3cc([N+](=O)[O-])ccc32)cc1C | 12 |
| O=C1c2ccccc2C(=O)c2c1ccc1c(=O)n(C3CCCCC3)[nH]c21 | 3 |
| CCOc1cccc(/C=C/C(=O)O)c1 | 12 |
| Cc1cnc(NC2=NCCC2)s1 | 15 |
| O=C(NC(Cc1c[nH]c2ccccc12)C(=O)O)c1ccc(F)cc1 (stereo not drawn) | 19 |
| CCn1c(C(C)C)n[nH]c1=S | 11 |
| COc1ccc(CC(=O)N2CCc3ccccc32)cc1 | 11 |
| O=C(Nc1ccc(S(=O)(=O)Nc2nccs2)cc1)c1ccc(N2C(=O)c3ccccc3C2=O)cc1 | 40 |
| COc1ccc(C2C3=C(CCCC3=O)NC3=C2C(=O)c2ccccc23)cc1 (stereo not drawn) | 15 |
| O=C(COC(=O)/C=C/c1cccc(Cl)c1)NCCc1ccc(Cl)cc1Cl | 9 |

An excerpt from above in order of length of the SMILES, ascending:
| Molecule | Calb biofilm kill |
| --- | --- |
| O=C(NC(Cc1c[nH]c2ccccc12)C(=O)O)c1ccc(F)cc1 (stereo not drawn) | 19 |
| O=C(COC(=O)/C=C/c1cccc(Cl)c1)NCCc1ccc(Cl)cc1Cl | 9 |
| O=C1c2ccccc2C(=O)c2c1ccc1c(=O)n(C3CCCCC3)[nH]c21 | 3 |

Shown field by field: entries from further up.
CCOc1cccc(/C=C/C(=O)O)c1
  Calb biofilm kill = 12

O=C(NC(Cc1c[nH]c2ccccc12)C(=O)O)c1ccc(F)cc1 (stereo not drawn)
  Calb biofilm kill = 19

(more compounds)
| Molecule | Calb biofilm kill |
| --- | --- |
| CCOc1cccc(OCCNC2CCCC2)c1 | 21 |
| Cc1cccc(Nc2nnc(SC/C(O)=C(\C#N)c3nc4ccccc4[nH]3)s2)c1 | 12 |
| CC1=C(C(=O)N(C)C)C(c2ccc(N3CCOCC3)cc2)NC(=O)N1 (stereo not drawn) | 19 |
| COCCSc1ncnc2c1oc1nc3c(cc12)COC(C)(C)C3 | 12 |
| Cc1cc(C)cc(NC(=O)CN(Cc2ccccc2)S(C)(=O)=O)c1 | 15 |
| Fc1ccc(-c2csc(-c3ccccn3)n2)cc1F | -3 |
| Cc1cc(Oc2cc(N)cc([N+](=O)[O-])c2)ccc1Cl | 14 |
| O=C(CCNc1n[nH]c(=O)[nH]c1=O)N/N=C\c1cccc(OCc2ccccc2)c1 | 6 |
| O=c1[nH]c2ccc(F)cc2[nH]c1=O | 17 |
| O=C(Oc1cccc(NC2=NS(=O)(=O)c3ccccc32)c1)c1cccnc1 | 26 |
| COCCn1c(-c2cccs2)nc2nc3ccccc3nc21 | 24 |
| CN1C(C(=O)NCc2ccco2)CC2Cn3c(nc4cc5ccccc5cc43)C21 (stereo not drawn) | 13 |
| CCOC(=O)/C(C(=O)Nc1ccccc1Br)=C1/NC(C)(C)Cc2ccccc21 | 13 |
| NS(=O)(=O)c1ccc(CNC(=O)c2cnccn2)cc1 | 13 |
| CC(=O)c1sc(N/N=C\c2ccc(Br)cc2)nc1C | 18 |
| CC(=O)c1ccc(N2CCN(C(=O)CN(C)S(=O)(=O)c3cnc[nH]3)CC2)cc1 | 9 |
| COc1ccc(NC(=O)CC2C(=O)N(c3ccc(OC)cc3)C(=O)N2Cc2ccc(OC)c(OC)c2)cc1 (stereo not drawn) | 13 |
| COc1ccc(CN2CCC(CO)(Cc3ccccc3)CC2)cc1Cn1cccn1 | 13 |
| COc1ccc(C)cc1N(CC(=O)N/N=C/c1ccccc1C(=O)O)S(=O)(=O)c1ccccc1 | 16 |
| CC(COc1ccccc1)N1CCC(CO)(CCc2ccccc2)CC1 (stereo not drawn) | 1 |
| Cc1ccc(C(=O)NCC(=O)NC2CCCC2)cc1 | 14 |
| CN(CCN1CCOCC1)Cc1nc(-c2ccc3c(c2)OCO3)no1 | 9 |
| COC(=O)c1ccc(C(=O)O)nc1 | 6 |
| O=C(COC(=O)c1ccccc1C(=O)N1CCN(c2ccccc2)CC1)NCc1ccccc1 | -12 |
| O=C1CN(C(=O)/C=C/c2ccccc2F)c2ccccc2N1 | 5 |
| Cc1cc2ncc(S(=O)(=O)C(C)(C)C)c(N)n2n1 | 21 |
| CC(C)(C)n1nnnc1C(c1cccnc1)N1CCN(c2cccc(C(F)(F)F)c2)CC1 (stereo not drawn) | 8 |
| COc1ccc(C(=O)OCCCN(C)C)cc1OC | 7 |
| CC(C)CNC(=O)CN(C)S(=O)(=O)c1ccc(F)cc1 | 17 |
| COc1ccc2c(COC(=O)CCS(=O)(=O)c3ccccc3)cc(=O)oc2c1 | 11 |
